Source: PubChem
D2 potentiator – human D2 receptor positive allosteric modulation; P14416; DiscoveRx D2 beta-arrestin cells, luminescence, 90 min; 100% = 57 uM dopamine signal; potentiation, % (concentration not given with the values); hit rate 0.23% among 360,000; AID 624464; active = potentiation of 50% or more; inconclusive = 30% to 50%; inactive = 30% or less;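 note: compound concentration not given in the record; tested on top of an EC20 dose of dopamine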
Target sequence (P14416 whole entry, looked up): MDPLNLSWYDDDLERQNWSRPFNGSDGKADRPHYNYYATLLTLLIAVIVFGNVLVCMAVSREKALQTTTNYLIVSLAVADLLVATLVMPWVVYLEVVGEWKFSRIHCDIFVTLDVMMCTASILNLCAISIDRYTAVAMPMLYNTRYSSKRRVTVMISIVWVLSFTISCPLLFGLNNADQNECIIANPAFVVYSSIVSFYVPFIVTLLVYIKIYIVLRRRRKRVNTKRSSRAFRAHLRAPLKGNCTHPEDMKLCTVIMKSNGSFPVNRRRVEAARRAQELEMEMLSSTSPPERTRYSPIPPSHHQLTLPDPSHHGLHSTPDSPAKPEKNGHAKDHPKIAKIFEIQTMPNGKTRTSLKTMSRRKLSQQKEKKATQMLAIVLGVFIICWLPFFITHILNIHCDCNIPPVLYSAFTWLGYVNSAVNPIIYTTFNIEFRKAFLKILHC
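PathHunter beta-arrestin assay in DiscoveRx D2 cells. Compounds were added with an EC20 of dopamine (50 nM final) for 90 min at 37 deg C. Luminescence was read 1 h after detection reagent, with 57 uM dopamine as the EC100 control.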
PINK1 modulator – changes PINK1 expression; PINK1 immunofluorescence, high-content cytometry, 24 h; Potency, µM (titrated, usually from 76.6 µM), for the others: at the top dose activation (PINK1 increase), hits mostly activators; hit rate 0.2% among 410,000; AID 624263; active = well fitted activation curve with a large enough effect; inconclusive = small, poorly fitted or top-dose-only effect; inactive = flat fitted curve, though single readings scatter; cell line not stated here;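 note: potency is the fitted concentration of half-maximal effect; % of control where 0% means no effect; nearly all actives have a fitted effect of over 65% in size; a mitochondrial uncoupler was the plate control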
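PINK1 protein, normally rapidly degraded, was detected by immunofluorescence after 24 hour compound treatment of a stable cell line. Titration data (5 concentrations) came from laser-scanning cytometry, with CCCP-treated wells as controls.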
Six1-Eya2 inh – inhibitors of human Six1/Eya2 interaction; AlphaScreen GST-Six1/His-Eya2 binding, biochemical; active compounds read low; control for the full effect not named in the record; hit rate 0.56% among 360,000; activity change, % (no concentration beside the values); AID 651725; Q15475+O00167; in the data active = activity change below about -65%; inconclusive = about -30% to -65%; inactive = above about -30%; note: % is set by controls: 0 for no effect and ±100 for the full control effect
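Compounds are tested against tagged Six1 and Eya2 proteins bridged by glutathione donor and nickel acceptor beads; after a one-hour incubation at 37 °C without light, AlphaScreen emission is recorded.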
TRPML1 ag – human mucolipin-1 channel agonism; Q9GZU1; TRPML1-expressing cells, Ca2+ dye fluorescence, FDSS; host cell line not named in the record; reference of the full effect not given here; activation, % (test concentration not listed); hit rate 0.12% among 410,000; AID 624414; in the data active = activation above about 50%; inconclusive = about 30% to 50%; inactive = below about 30%; note: 0% is about no effect; the text of the record puts the active cut at 80%
Target sequence (Q9GZU1 whole entry, looked up): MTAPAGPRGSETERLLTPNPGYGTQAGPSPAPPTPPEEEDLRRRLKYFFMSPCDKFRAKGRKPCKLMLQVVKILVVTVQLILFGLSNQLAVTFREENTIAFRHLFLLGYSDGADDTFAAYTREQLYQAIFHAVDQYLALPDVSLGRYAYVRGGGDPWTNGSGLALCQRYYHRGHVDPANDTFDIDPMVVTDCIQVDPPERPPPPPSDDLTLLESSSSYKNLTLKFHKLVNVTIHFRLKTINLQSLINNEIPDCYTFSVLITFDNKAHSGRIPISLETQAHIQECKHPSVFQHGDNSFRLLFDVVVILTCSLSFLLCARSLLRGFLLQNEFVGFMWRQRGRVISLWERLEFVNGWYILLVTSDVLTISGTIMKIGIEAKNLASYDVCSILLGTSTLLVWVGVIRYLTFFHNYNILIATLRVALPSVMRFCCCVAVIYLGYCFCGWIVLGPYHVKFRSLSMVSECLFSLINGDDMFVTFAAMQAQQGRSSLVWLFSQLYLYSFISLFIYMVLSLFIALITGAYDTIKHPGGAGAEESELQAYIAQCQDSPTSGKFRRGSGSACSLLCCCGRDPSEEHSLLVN
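Agonist activity was taken from a 110 s kinetic Ca2+ dye read on the FDSS after pinning compounds onto TRPML1-DL cells. The cells were seeded at 1,500/well with Tet inducer, incubated about 16 h, then dye-loaded at room temperature.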
D2 agonist – agonists of human D2 dopamine receptor (beta-arrestin) | activation, % (concentration not given with the values) | hit rate 0.084% among 360,000 | AID 624465 | DiscoveRx PathHunter D2 beta-arrestin, luminescence, 90 min; 100% = 57 uM dopamine signal; in the data active = activation above about 40%; inconclusive = about 15% to 40%; inactive = below about 15%; note: compound concentration not given in the record; the text of the record calls up to 30% inactive
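DiscoveRx PathHunter D2 beta-arrestin cells (2,100/well) attached overnight, then compound-stimulated 90 min at 37 C in HBSS/10 mM HEPES/0.1% Tween-20 buffer; beta-galactosidase complementation read by luminescence after 1 h at ambient temperature. Dopamine 57 uM final (EC100) as control.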
CtBP-E1A inh – CtBP/E1A binding inhibition | AlphaScreen GST-E1A/His-CtBP binding, 1536-well; active compounds read low; control for the full effect not named in the record | activity change, % (no concentration beside the values) | hit rate 0.49% among 340,000; in the data active means activity change below about -65%; inconclusive means about -30% to -65%; inactive means above about -30%; note: % is set by controls: 0 for no effect and ±100 for the full control effect
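AlphaScreen with 125 nM GST-E1A and 125 nM His-CtBP (5X stocks) in Tris pH 8.0, 300 mM NaCl, BSA, Tween 20, TCEP. Compounds preincubated 2 h at 37 deg C, then glutathione donor/nickel acceptor beads added for 1 h at 37 deg C in dark.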
Numbers without * were called inactive; ? = inconclusive; / = not tested or not shown; & = joins results of further samples; [ ] = remark or other dose.

SMILES	D2 potentiator	PINK1 modulator	Six1-Eya2 inh	TRPML1 ag	D2 agonist	CtBP-E1A inh
CC(C)(C)CC(=O)NCCCCCCNC(=O)CC(C)(C)C	-8	0.6%	-9	0.4	-2.4	1
CC(=O)NC(CC(=O)Nc1cc(Cl)ccc1-n1cncn1)c1ccccc1 (configuration not stated)	-1	0.7%	-5	0.1	-3.8	4
COc1ccccc1C(CC(=O)N1CCCC1)c1ccc2c(c1)OCO2 (configuration not stated)	-20	0.4%	11	12	-4.6	-5
O=[N+]([O-])c1cn(Cc2ccc(Cl)cc2)cn1	10	-2.0%	14	1.4	1.9	-3
CSc1ccc(CNC(=O)C2CCC(=O)N(CC3CCCCC3)C2)cc1 (configuration not stated)	-15	0.5%	-11	-0.3	0.4	-7
COc1ccc(S(=O)(=O)c2c(C)c(NS(=O)(=O)c3ccccc3)cc(C)c2O)cc1	1	-1.0%&2.7%	-9	0.2&0.0	0.5	0
COC(=O)c1ccc(NC(=O)c2ccc3nsnc3c2)cc1	-8	5.9%	4	0.1	0.6	2
CC(Nc1cccc2ccccc12)C(=O)N/N=C/c1ccc([N+](=O)[O-])cc1 (configuration not stated)	14	0.1%	-22	0.0	2.9	-18
O=[N+]([O-])c1cc(C(F)(F)F)cc([N+](=O)[O-])c1NCCN1CCNCC1	-9	-0.1%	-1	0.7	14	/
COc1ccc(CCN(CC(=O)NC2CCCC2)C(=O)Cn2nnc(-c3ccc(C)o3)n2)cc1OC	3	2.0%	5	-0.1	0.9	6
COc1ccccc1NC(=O)c1ccc(COc2ccccc2Br)o1	-2	4.1%	11	4.1	1.0	/
CCC1(C)CC(=O)N(c2ccc(C(=O)O)c(O)c2)C1=O (configuration not stated)	-7	-2.1%	17	-0.5	-1.7	-10
COc1cc2c(cc1NC(=O)c1cc(-c3ccncc3)nc3ccccc13)oc1ccccc12	0	4.9%	-20	-0.5	1.5	-3
Cc1cc(C(=O)Nc2c(C)cccc2C)n(-c2ccccc2)n1	-3	-1.2%&0.7%	-4	-0.4&-1.3	-6.5	0
NC(=O)CSc1nnc(SCc2ccc(F)cc2)s1	-1	-0.9%	1	0.1	-4.5	6
OC(COc1ccc(F)cc1)CN1CCN(c2ccccc2F)CC1 (configuration not stated)	-21	1.0%	9	4.1	-6.6	/
CCc1ccccc1N(C)S(=O)(=O)c1cc(-c2cc(C)no2)ccc1OC	-17	1.0%	-4	-0.5	-0.7	-3
COc1ccc(C(=O)Nc2ccc(S(=O)(=O)NCc3ccco3)cc2)cc1OC	-3	4.9%	-20	-0.4	-3.1	?
COc1ccc(/C=C(\NC(=O)c2ccc(Cl)cc2)C(=O)NCc2cccnc2)cc1OC	-3	1.3%	1	-0.5	0.1	2
COc1ccc(N2CCN(C(=O)CN(c3cccc(OC)c3)S(=O)(=O)c3ccccc3)CC2)cc1	-2	-1.4%	?	0.2	-5.2	-23
CCOC(=O)c1c(C)[nH]c(C)c1C(=O)CN1C(=O)NC(CC(C)C)C1=O (configuration not stated)	18	0.7%	-1	-0.6	2.1	0
Cc1ccc(CC2(C)C(=O)Nc3c(Cl)ccc(Cl)c32)cc1 (configuration not stated)	-11	18%	-1	-0.7	-6.1	0
Cn1nnnc1SCC(=O)Nc1ccc(N2CCOCC2)cc1	-9	-3.4%[38.3 µM]	2	-0.3	0.5	8
CCn1cc(C(=O)N2CCCC(C(=O)c3ccc4ccccc4c3)C2)cn1 (configuration not stated)	-18	-0.3%	2	0.6	-1.0	0
Cc1ccccc1NC(=O)COC(=O)c1cccnc1	-15	0.5%	-3	-0.2	-2.1	5
COc1ccc(-c2nn(-c3ccccc3C)cc2CNC(C)c2cn(C)nc2C)cc1F (configuration not stated)	-19	0.5%	-1	0.4	-2.1	-23
Cc1ccccc1OCC(=O)Nc1nnc(C2CCCC2)s1	4	1.7%	-4	0.5	11	/
O=C1c2ccc(-c3ccc(Cl)c(C(F)(F)F)c3)cc2S(=O)(=O)c2cccc(C(=O)N3CCN(c4ccc(Cl)cn4)CC3)c21	2	1.3%	-7	-0.1	-4.6	/
Cc1nnc(SCC(=O)c2ccccc2)n1Cc1ccccc1	-4	1.1%	5	0.5	-3.5	3
Cc1cc(C)n(-c2ccc(C(=O)OCC(=O)Nc3cc(S(C)(=O)=O)ccc3Cl)cc2)n1	3	0.3%	-1	0.4	4.3	3

Compounds from the list above containing fluorine, in the order listed:
SMILES	D2 potentiator	PINK1 modulator	Six1-Eya2 inh	TRPML1 ag	D2 agonist	CtBP-E1A inh
O=[N+]([O-])c1cc(C(F)(F)F)cc([N+](=O)[O-])c1NCCN1CCNCC1	-9	-0.1%	-1	0.7	14	/
NC(=O)CSc1nnc(SCc2ccc(F)cc2)s1	-1	-0.9%	1	0.1	-4.5	6
OC(COc1ccc(F)cc1)CN1CCN(c2ccccc2F)CC1 (configuration not stated)	-21	1.0%	9	4.1	-6.6	/
COc1ccc(-c2nn(-c3ccccc3C)cc2CNC(C)c2cn(C)nc2C)cc1F (configuration not stated)	-19	0.5%	-1	0.4	-2.1	-23
O=C1c2ccc(-c3ccc(Cl)c(C(F)(F)F)c3)cc2S(=O)(=O)c2cccc(C(=O)N3CCN(c4ccc(Cl)cn4)CC3)c21	2	1.3%	-7	-0.1	-4.6	/

Continuation.
SMILES	D2 potentiator	PINK1 modulator	Six1-Eya2 inh	TRPML1 ag	D2 agonist	CtBP-E1A inh
O=C(C(Sc1ccccc1)c1ccccc1)N1CCOCC1 (configuration not stated)	16	1.9%	6	1.6	5.9	1
COC(=O)[C@@]12CCCN1[C@H](c1ccc(-c3ccc(Cl)c(Cl)c3)cc1)[C@H]1C(=O)N(C)C(=O)[C@H]12	-4	2.2%	-4	0.2	2.2	-1
CSc1ccccc1C(=O)NCC(c1ccco1)N1CCCCC1 (configuration not stated)	-10	0.6%	6	-1.1	-3.1	/
Cc1ccc(C(=O)O)cc1S(=O)(=O)N1CCC(C(=O)O)CC1	-5	7.4%[38.3 µM]	4	1.3	-1.7	6
COc1ccccc1N(C)S(=O)(=O)c1ccc(C(=O)N2CCC2)cc1	-11	?	-2	-0.4	-3.7	2
O=C(Cc1ccccc1)N/N=C/c1cc(Br)c(Br)o1	-7	1.1%[38.3 µM]	-15	3.8	-1.1	-15
CC1CCc2nc(N)c(C#N)c(-c3cccn3C)c2C1 (configuration not stated)	4	-0.1%	7	1.0	-1.2	-14
Cc1ccc(S(=O)(=O)N2CCC(n3nnc4cc(C)ccc43)CC2)cc1	-3	-1.6%[38.3 µM]	4	1.7	0.4	8
CC(C)N(Cc1nc(-c2ccccc2)no1)C(=O)COc1ccccc1	-4	1.7%	3	0.6	-1.1	3
COc1ccc(N2CCN(C(=O)c3cc(-c4cccs4)nc4ccccc34)CC2)cc1	-21	5.7%	?	0.1	-15	0
Cc1ccnc(NC(=O)CN(C)S(=O)(=O)c2cccc3nsnc23)c1	-4	1.0%	0	0.0	0.3	3
CCCNC(=O)c1onc(CSc2nc3ccccc3[nH]2)c1C(=O)NCCC	2	-0.1%	-1	0.9	2.0	7
CCOC(=O)c1ccc2c(c1)nc(-c1ccccn1)n2CC	-1	2.0%	-1	1.1	2.2	-7
COc1ccc(CNc2ncnc3cc(Cl)ccc23)cc1OC	-5	0.4%	0	-0.6	1.6	10
COc1ccc(C(=O)COC(=O)CCn2c(C)csc2=O)c(OC)c1	3	1.4%	-5	-0.8	-2.4	4
Cc1ccccc1-n1c(CSC(=N)N)nc2ccccc2c1=O	-4	-0.7%	3	0.1	-5.5	2
CCOC(=O)c1sc2nc(SCC(=O)N(CC)CC)n(CCCN3CCCC3=O)c(=O)c2c1C	-5	2.0%	-4	-0.3	-3.5	-2
NC(=O)CSc1nnc(Cc2csc(Nc3ccc(F)cc3)n2)n1Cc1ccccc1	-2	-1.3%	-14	3.0	-2.6	-16
COCCn1c(SCC(=O)N2CCCCC2)nc2c(c1=O)SCC2	-18	1.1%	1	1.5	2.7	-7
CCOC(=O)c1cc2c(ccn2C)n1CC(=O)N1CCC(Cc2ccccc2)CC1	-17	/	?	0.6	-2.1	7

Compounds shown so far with a nitro group on carbon (3):
SMILES	D2 potentiator	PINK1 modulator	Six1-Eya2 inh	TRPML1 ag	D2 agonist	CtBP-E1A inh
O=[N+]([O-])c1cn(Cc2ccc(Cl)cc2)cn1	10	-2.0%	14	1.4	1.9	-3
CC(Nc1cccc2ccccc12)C(=O)N/N=C/c1ccc([N+](=O)[O-])cc1 (configuration not stated)	14	0.1%	-22	0.0	2.9	-18
O=[N+]([O-])c1cc(C(F)(F)F)cc([N+](=O)[O-])c1NCCN1CCNCC1	-9	-0.1%	-1	0.7	14	/

Looked up by structure from above, two records:
SMILES	D2 potentiator	PINK1 modulator	Six1-Eya2 inh	TRPML1 ag	D2 agonist	CtBP-E1A inh
CCOC(=O)c1cc2c(ccn2C)n1CC(=O)N1CCC(Cc2ccccc2)CC1	-17	/	?	0.6	-2.1	7
CCOC(=O)c1ccc2c(c1)nc(-c1ccccn1)n2CC	-1	2.0%	-1	1.1	2.2	-7

The list continues:
SMILES	D2 potentiator	PINK1 modulator	Six1-Eya2 inh	TRPML1 ag	D2 agonist	CtBP-E1A inh
Cc1nc2cc(C(=O)N3CCc4ccccc43)ccc2n1-c1ccc(F)c(F)c1	-26	0.0%	7	0.6	-1.0	1
O=C(N/N=C/c1cccs1)c1cccnc1	-6	0.3%	-8	0.5	-2.6	-4
COc1ccc(C(=O)NC(=S)N2CCN(c3ccccc3OC)CC2)cc1OC	-30	13%	-3	-0.7	-4.9	0
CCC1S/C(=C(\C#N)C(=O)NCc2ccco2)N(c2ccc(F)cc2)C1=O (configuration not stated)	-6	0.6%	-4	-0.6	-2.3	4
CN(c1ncc(C(F)(F)F)cc1Cl)n1cc(C(N)=O)c2ccccc2c1=O	-4	0.7%	22	-0.7	-2.2	23
Nc1ccccc1-c1nnn(CC(=O)N2CCCc3ccccc32)n1	-11	/	-5	0.2	0.2	0
NC(=NCCc1ccccc1)NS(=O)(=O)c1ccc(F)cc1	-14	-0.3%	-6	-0.4	-2.9	-18
CC(Oc1ccc(Br)cc1)C(=O)NCC(c1ccco1)N1CCCCC1 (configuration not stated)	-15	-0.9%	9	-0.1	-6.4	-8
CN(CC(=O)Nc1cccc(F)c1)C(=O)c1cccc(N2C(=O)CCC2=O)c1	-4	-0.5%	3	-0.1	5.3	3
COc1ccc(CCNC(=O)C2CC3Cn4c(nc5ccccc54)C3N2C)cc1 (configuration not stated)	-9	1.3%	1	-0.3	-3.7	-1
COc1cc(-c2cc(=O)c3ccccc3o2)ccc1O	-2	-0.5%	-14	0.3	1.3	-7
CN1C(N)=NC(=O)/C1=C/c1ccccc1F	-7	2.3%	-6	2.5	-2.0	7
Cc1ccc(-n2ncc3c(=O)[nH]c(SCC(=O)N4CCN(c5ccccc5)CC4)nc32)cc1	-7	0.0%	9	-0.2	-2.5	1
COc1ccc(NC(=O)C2CC2)cc1NS(=O)(=O)c1ccc(F)cc1	-12	-1.2%	-1	-0.6	-0.7	-2
Cn1c(=O)cc(N2CCN(C(=O)c3ccco3)CC2)[nH]c1=O	-2	1.9%	-1	-0.3	-5.4	-6
O=C(NCCCN1CCOCC1)c1ccc(-n2nc(C(F)(F)F)cc2-c2cccs2)cc1	-9	0.1%	-1	0.0	2.6	-1
